Source: PubChem (several laboratories)
eIF4H inh: inhibitors of RNA binding by human eIF4H; Q15056; eIF4H fluorescence polarization binding assay; inhibition, % at 35 µM; hit rate 0.94% among 290,000; AID 2012;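 active means 50% or more with normal probe brightness, or confirmed in later tests; inconclusive means above 50% with abnormal brightness, or retests that disagree; inactive means below 50% or failed in later tests; about a fifth of its hits are not listed in these tables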;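 further: calls also rest on retests at 20 µM and on dose response follow-up; 0% = protein and probe with vehicle and 100% = probe without protein; strong numbers were not always called active; many hits fall short of the cut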
PABP FP inh: blocks human PABP binding to poly(A) RNA | P11940 | hit rate 1% among 290,000 | fluorescence polarization | AID 2014 | inhibition, % at 35 µM;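 active means 50% or more with normal probe brightness, or confirmed in later tests; inconclusive means above 50% with abnormal brightness, or retests that disagree; inactive means below 50% or failed in later tests; about a fifth of its hits are not listed in these tables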;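 further: calls also rest on retests at 20 µM and on dose response follow-up; controls were probe without protein and protein plus probe with vehicle; some compounds called inactive have numbers as strong as hits; many hits fall short of the cut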
Target sequence (P11940 whole entry, looked up): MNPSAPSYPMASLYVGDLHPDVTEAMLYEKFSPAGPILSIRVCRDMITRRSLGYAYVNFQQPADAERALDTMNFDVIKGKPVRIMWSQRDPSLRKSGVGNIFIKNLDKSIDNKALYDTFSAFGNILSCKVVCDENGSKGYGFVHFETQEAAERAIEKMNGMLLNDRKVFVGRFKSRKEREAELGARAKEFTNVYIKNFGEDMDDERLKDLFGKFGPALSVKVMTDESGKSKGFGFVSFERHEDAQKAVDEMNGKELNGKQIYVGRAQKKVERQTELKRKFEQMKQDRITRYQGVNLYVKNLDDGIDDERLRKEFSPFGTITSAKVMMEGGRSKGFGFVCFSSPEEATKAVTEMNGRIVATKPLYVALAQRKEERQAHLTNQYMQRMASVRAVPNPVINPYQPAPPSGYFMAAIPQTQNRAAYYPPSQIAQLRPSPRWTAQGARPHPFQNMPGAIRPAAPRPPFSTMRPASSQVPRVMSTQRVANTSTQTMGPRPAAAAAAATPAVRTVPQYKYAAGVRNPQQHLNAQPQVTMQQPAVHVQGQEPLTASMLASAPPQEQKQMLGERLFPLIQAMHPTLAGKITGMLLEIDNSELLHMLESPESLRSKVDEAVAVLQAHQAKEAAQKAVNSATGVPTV
HIV Env fusion: HIV envelope-mediated fusion inhibition | HeLa-JRFL Env/CEM21 cell fusion, luciferase | inhibition, % at 12.3 µM | hit rate 1.1% among 360,000;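 active means mean replicate inhibition score of at least 50 and every replicate individually at or above 50; inconclusive means only one of the two criteria met; inactive means mean below 50 and not all replicates reaching 50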;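 further: 0% = plate neutral controls and 100% = maraviroc near 300 nM; one replicate is shown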
MT1-MMP act inh: MT1-MMP (human) activation inhibition. P50281. GFP/RFP ratio change, % at 20 µM. AID 651647. hit rate 0.061% among 360,000. HT1080 RFP-PRO-GFP cells, GFP/RFP ratio fluorescence, overnight; percent of plate control window, DMSO zero;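 active means GFP/RFP ratio change of at least 30% with cell ATP level not reduced by more than half and red fluorescence within 50% of control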; further: strong numbers were not always called active
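Assay system: HT1080 cells carrying an RFP-PRO-GFP reporter | Dosing: Single dose of 20 µM compound, 1% DMSO final | Incubation: Cells overnight before dosing, compound overnight, 37 °C, 5% CO2 | Evaluation: GFP/RFP fluorescence ratio | Control set: DMSO and RFP-L50D-GFP cell wells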
Rce1 inh: inhibitors of yeast Ras-converting enzyme; AID 2563; yeast membranes, quenched prenylated peptide cleavage fluorescence; Q03530; calls only; hit rate 0.27% among 290,000;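 active means fall in fluorescence gain of 50% or more versus controls, with final raw signal at or below 3038400; inconclusive means same 50% fall but final raw signal above 3038400; inactive means fall in fluorescence gain under 50%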;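 further: plate controls were neutral control wells for no effect and wells lacking membranes for full effect; tested at 10 µM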
CSC inhib: cancer stem cell inhibition | cancer stem cell-like cells viability, luminescence | inhibition, % at 7.5 µM | hit rate 1.1% among 300,000 | AID 2717;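 active means mean at 75% or more and at least half the replicates too; inconclusive means mean and replicates disagree; tested in HMLE shEcad cells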;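 further: 0% = median of negative and 100% = median of positive control wells; the first replicate is given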
UUG fidelity: yeast start codon fidelity modulation | S. cerevisiae UUG-firefly luciferase reporter, luminescence/redox ratio | activity score, % at 18.7 µM | hit rate 0.13% among 350,000 | AID 602363;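 active means replicate mean at a twofold rise or more, about +100% in these data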;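 further: firefly luciferase made from a UUG start codon reports start codon fidelity; reporter light over untreated wells divided by growth signal over untreated wells; some hits fall short of that in this replicate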
MT1-MMP act inh RFP: also measured in MT1-MMP act inh; calls as there; RFP signal change, %; measured here: RFP expression control read;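 0 = vehicle wells; hits needed this value within 50% of zero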
* = called active by the depositor; i = inactive; ? = inconclusive; . = no result given; & = joins results of further samples. The list is partial; count on the stated rates, not on these rows.

SMILES	eIF4H inh	PABP FP inh	HIV Env fusion	MT1-MMP act inh	MT1-MMP act inh RFP	Rce1 inh	CSC inhib	UUG fidelity
O=C(COc1cccc(C(F)(F)F)c1)NCC(c1cccs1)N1CCOCC1 (stereo not given)	.	.	6	0	-3	.	-3	-2
COc1cccc(NC(=S)NCc2ccccn2)c1	8	5	-3	0	2	i	0	.
COc1ccccc1N1CCN(C(=O)c2cccc(S(=O)(=O)N3c4ccccc4CC3C)c2)CC1 (stereo not given)	.	.	17	1	-8	.	.	-9
O=C1CC2(CCCC2)Oc2ccc(Cl)cc21	.	.	19	-1	4	i	-13	2
COc1ccc(S(=O)(=O)NC2CCCCC2)c(C)c1C	3	-2	.	-1	3	i	-12	1
Cc1ccc(-n2c(SCC(=O)N3CCOCC3)nc(O)c(Cc3ccccc3)c2=O)cc1	-6	-4	4	-5	3	i	0	-10
Cc1ccc(NC(=O)CSCC(=O)NC2=NCCS2)cc1	.	.	9	-3	0	.	.	3
COc1ccccc1C(CNC(=O)COc1cc(C)ccc1Cl)N1CCCC1 (stereo not given)	.	.	6	1	5	i	8	.
Cn1c(=O)c2c(nc(Br)n2Cc2ccccc2Cl)n(C)c1=O	-6	-15	.	-1	-10	i	8	-16
CN(C)c1ccc(-c2ccnc3c2CC(C)(C(=O)NCCC(F)(F)F)O3)cc1 (stereo not given)	.	.	20	3	-4	.	.	-19
CN(C)CCCOC(=O)c1ccc(Cl)cc1Cl	-14	-8	-27	1	4	i	8	-22
O=C(Nc1nc2c(s1)CCc1ccccc1-2)c1cccs1	-8	-5	.	-22	-28	i	-8	-17
O=C(/C=C/c1ccc(F)cc1)c1cc(Br)ccc1O	-6	4	6	7	-3	i	?	2
O=C(c1ccco1)N1C(=O)c2cccc3c(S(=O)(=O)N4CCCC4)ccc1c23	0	1	.	2	3	i	-1	-4
CCN(CC)C(=O)C1CCCN(C(=S)Nc2cccc3ccccc23)C1 (stereo not given)	0	-12	19	-1	-2	i	16	.
Cc1nc2ccccc2c(=O)n1/N=C/c1ccccn1	-2	3	-7	-2	1	i	-8	-12
Nc1cc(=O)[nH]c(SCC(=O)N2CCCCC2)n1	0	4	3	-2	-1	i	-5	.
COc1ccc(C2CC(c3ccccc3)=NN2S(=O)(=O)c2ccccc2)cc1 (stereo not given)	-11	6	12	-11	-10	i	.	0
COc1ccc(-n2c(O)c(/C=N/NS(=O)(=O)c3cccc([N+](=O)[O-])c3)c3ccccc3c2=O)cc1OC	-4	-2	27	-97	7	i	-4	.
COc1ccc(CN2C(=O)C(CC(=O)NC(c3ccccc3)c3ccccc3)CC(C(=O)N(C)C)=C2C)cc1 (stereo not given)	.	.	16	-5	-2	.	.	16
CCOC(=O)c1nnn(-c2nonc2N)c1CSc1ccc(C)cc1	-1	1	.	2	-3	i	-4	13
c1cncc(CNc2c3c(nc4nnnn24)CCCC3)c1	-5	-16	.	1	-1	i	-11	-4
COc1ccc(C(=O)CSc2nc(N)nc(SC)c2C#N)cc1	-6	-8	-79	2	0	i	-7	-10
CC1(C)CC(=O)C(CS(=O)(=O)c2ccccc2)=C(O)C1	-7	15	5	0	4	i	3	-3
COc1cc2c(cc1OC)CN(Cc1cc(OC)c3c(c1)OCO3)CC2	-2	0	?	4	3	i	2	.
CC(=O)NC1(C(F)(F)F)C(=O)Nc2c1c(=O)[nH]c(=O)n2CC(C)C (stereo not given)	-1	-1	-13	1	5	i	.	-7
CN1CCN(S(=O)(=O)c2cccc(C(=O)Oc3ccc(Br)cc3F)c2)CC1	-13	-13	26	-2	0	i	-19	-7
Cc1ccc(S(=O)(=O)N2CCCCC2)cc1NC(=O)C1CCCO1 (stereo not given)	3	10	-4	0	2	i	-10	.
CN(N=Nc1cccc([N+](=O)[O-])c1)c1cccc([N+](=O)[O-])c1	14	4	-89	5	9	i	3	.
Cc1ccc(CN2CCCC(C(=O)N3CCCC3)C2)cc1 (stereo not given)	3	6	-5	-3	-1	i	-11	-9
Cn1ncc(Cl)c1C(=O)Nc1nc2ccc(Cl)cc2s1	-6	22	-31	0	-3	i	-12	-19
COc1ccccc1CNC(=O)COC(=O)c1ccc(C)c(S(=O)(=O)N2CCOCC2)c1	.	.	-2	2	-4	.	-1	.
O=C(c1ccc(S(=O)(=O)N2CCc3ccccc3C2)cc1)N1CCCCC1	-9	-6	15	0	-7	i	1	4
COc1ccc(S(=O)(=O)N2CCOCC2)cc1NC(=O)[C@@H]1CCCN1C(=O)c1cccs1	-5	12	0	-4	0	i	-2	.
C=CCSc1nsc(NC(=O)Nc2ccc(F)cc2)n1	0	1	30	-12	-37	i	101*	-23
CC(=O)NC(CC(=O)O)C(=O)O (stereo not given)	.	.	.	-3	5	i	-5	1
COc1ccc(NS(=O)(=O)c2cccc(NC(=O)c3ccc(Cl)nc3)c2)cc1	-4	3	26	-8	-28	i	24	.
COc1ccc(C2=C(C=C(C#N)C#N)C(c3ccccc3C)c3ccccc3O2)cc1OC (stereo not given)	5	-9	.	-7	-8	i	21	.
COc1cc(NC(=O)c2cnc(N)o2)cc(C(=O)Nc2cccc(C(F)(F)F)c2)c1	-6	-4	24	0&0	-25&-23	i	-4	-29&-7
COc1ccc2c(c1OC)C(=O)N(c1ccc(C)cc1)C2	-6	2	-76	2	4	i	-9	.
CCC(C)C(NC(=O)OCc1ccccc1)C(=O)OCN1C(=O)c2ccccc2C1=O (stereo not given)	-4	3	-4	7	2	i	3	-14
CCC[C@@H](NS(=O)(=O)c1ccc(C)cc1)C(=O)Oc1ccc2c3c(c(=O)oc2c1)CCC3	-8	31	.	2	2	i	6	.
COC(=O)[C@]1(C)N[C@H](CN(C)C(=O)Nc2ccccc2)[C@@H]2C(=O)N(C)C(=O)[C@@H]21	.	.	?	1	6	.	.	-11
COc1ccc(NC(=O)c2cc(-c3ccc(F)cc3OC)n[nH]2)cc1OC	.	.	16	0	3	.	.	0
CCOc1ccc(CCNC(=O)COC(=O)Cc2c[nH]c3ccccc23)cc1OCC	.	.	-207	-5	0	i	-12	-14
CCN(CC)S(=O)(=O)c1ccc(N2CC(C(=O)NCCC3=CCCCC3)CC2=O)cc1 (stereo not given)	.	.	.	3	-3	.	-7	4
COc1ccccc1/C=C/C(=O)OC(C)CN1CCCCC1 (stereo not given)	4	1	-5	-3	0	i	-3	-13
CCOC(=O)C1C(=O)CC(O)(c2ccccc2)CC1c1ccccc1 (stereo not given)	8	8	.	3	-1	i	-18	12

Whole records, looked up by structure. Order of screens: eIF4H inh	PABP FP inh	HIV Env fusion	MT1-MMP act inh	MT1-MMP act inh RFP	Rce1 inh	CSC inhib	UUG fidelity
`CCOC(=O)C1C(=O)CC(O)(c2ccccc2)CC1c1ccccc1` (stereo not given) in the list: 8	8	.	3	-1	i	-18	12
`COC(=O)[C@]1(C)N[C@H](CN(C)C(=O)Nc2ccccc2)[C@@H]2C(=O)N(C)C(=O)[C@@H]21` in the list: .	.	?	1	6	.	.	-11
`COc1ccc(C2=C(C=C(C#N)C#N)C(c3ccccc3C)c3ccccc3O2)cc1OC` (stereo not given) in the list: 5	-9	.	-7	-8	i	21	.

Going on with the list.
SMILES	eIF4H inh	PABP FP inh	HIV Env fusion	MT1-MMP act inh	MT1-MMP act inh RFP	Rce1 inh	CSC inhib	UUG fidelity
COc1ccccc1N1CCN(C(=O)c2cc(=O)c3ccc(C)cc3o2)CC1	-8	-6	2	-3	1	i	7	-10
O=C(NN=C1C2CC3CC(C2)CC1C3)c1ccccc1O	2	0	-63	4	5	i	-29	.
CC(=O)Oc1cccc(/C=N\NC(=O)C(=O)N/N=C/c2cccc(OC(C)=O)c2)c1	.	.	-8	.	.	.	4	-6
CCOC(=O)C1=C(O)/C(=C\c2cc(C)n(-c3ccc(F)cc3)c2C)N=C1C	40	-5	-6	-14	7	i	-17	2
COc1ccc(-c2ccc(-c3noc(C)n3)c(OC)n2)cc1	5	-1	-86	0	0	i	-8	-22
CCOc1ccc(N2CC(C(=O)N3CCCCC3)CC2=O)cc1 (stereo not given)	3	10	-14	4	7	i	.	-10
O=C(Cc1ccccc1[N+](=O)[O-])NCc1ccc(Cl)cc1Cl	10	32	-38	6	1	i	-2	.
CCOC(=O)C(NC(=O)Nc1cccc(C)n1)(OCC(F)(F)F)C(F)(F)F (stereo not given)	-3	-6	-84	-4	-6	i	.	-11
Oc1ccccc1CNc1cccc2cccnc12	15	14	-27	-12	3	i	38	.
COc1ccccc1OCc1nc(C#N)c(N2CCCC2)o1	1	-9	-31	0	2	i	-6	.
O=C(NNC(=O)C1CCCCC1)C(=O)NC1CCCCC1	-2	-5	.	2	3	i	-2	-16
CN(C(=O)CSc1nnc2n1CCCCC2)C1(C#N)CCCCC1	.	.	-24	2	1	.	4	-15
O=C1CCN(C2CCN(Cc3nc(Cc4ccccc4F)no3)CC2)CCN1	-8	3	-2	-1	3	i	-6	.
CCCNC(=O)C1(C)CCN(C(=O)c2ccc(C)c(F)c2)C1 (stereo not given)	.	.	22	-1	3	.	.	-2
CC1C(C(=O)Nc2ccccc2)CCCC1(C)C(=O)O (stereo not given)	-19	2	-12	3	5	i	-18	-19
CNC(=O)CC1C(=O)N(Cc2ccccc2)C(=S)N1NC(=O)c1cccc(F)c1 (stereo not given)	-10	9	.	-2	2	i	-10	-14
O=C(O)CC/C(=C\c1ccc2c(c1)OCO2)c1nc2ccccc2s1	4	12	-5	-4	-3	i	15	-12
CN1CCN(C(=O)CN(c2cccc(Cl)c2)S(=O)(=O)c2ccccc2)CC1	-7	-3	.	5	4	i	-12	-6
COCCSc1nc(N)c(NC(=O)c2ccc(OC)cc2)c(=O)[nH]1	-1	6	7	-3	6	i	-2	.
CCC(=O)Nc1ccccc1C(=O)NC1CCCCC1	6	-7	.	4	7	.	.	10
COc1ccc(COc2cc(-c3cccc(OC)c3)nc3ccc(NC(C)=O)cc23)cc1	-10	0	-21	8	3	i	17	-15
CC(C)CNC(=O)NC1C(NC(=O)NCC(C)C)N(C)C(=O)N1C (stereo not given)	-3	-2	.	4	5	i	-3	-15
O=C(N/C(=C/c1ccc(Br)cc1)C(=O)N1CCCC1=O)c1ccco1	-2	-6	6	2	4	i	4	.
CCC(=O)N1CCN(c2cc3c(cc2F)c(=O)c(C(=O)O)cn3CC)CC1	.	.	-5	0	3	.	-13	-18
Cc1ccc(C(=O)N/N=C\c2cccc(OC(=O)c3cccc(F)c3)c2)cn1	-7	1	-31	9	7	i	-12	-2
O=C(Oc1cccc(-n2cnnn2)c1)c1ccccc1Cl	-10	5	3	1	0	i	-12	.
COC(=O)c1cc(=O)n(Cc2cccs2)c(=NCc2cccs2)s1	2	-11	-20	12	-4	i	-1	-16
S=c1[nH]nc(-c2ccccc2)n1C1C=CCCC1 (stereo not given)	-5	-10	-89	-2	1	i	-11	-22
C=CCOc1ccccc1C1NC(=O)NC(C)=C1C(=O)NCc1ccccc1 (stereo not given)	-1	0	-7	-1	0	i	.	-12
CN(C)CCCNc1nc2cc(-c3ccccc3CO)sc2c(=O)n1C	.	.	22	-1	0	.	.	-5
O=C(O)CC12CC3CC(C1)CC(n1cncn1)(C3)C2	12	14	-15	2	5	i	-17	.
O=C(O)CCC(=O)Nc1nc(-c2ccccc2)cs1	4	-4	.	5	5	i	.	-9
COCCCN(C(=O)c1ccco1)c1nc(-c2cc(OC)ccc2OC)cs1	6	0	39	-4	-3	i	58	-10
